From PubChem BioAssay
Vaccinia Venus: qHTS for Stage-Specific Inhibitors of Vaccinia Orthopoxvirus: Venus Reporter Primary qHTS; Vaccinia virus Venus reporter expression, fluorescence; Potency, µM (series often up to 36.5 µM), for inactives: at the highest dose activity change, negative = inhibition, usual class: inhibitors; 0.46% of 330,000 active; AID 720580, 2013; active means well fitted inhibition curve with a large enough effect; inconclusive means small, poorly fitted or top-dose-only effect; inactive means no such curve, though single readings can be large or run the other way; tested in A549 cells; also: nearly all actives have a fitted effect of over 30% in size; inactives centre near -10
VACV mCherry inh: qHTS for Stage-Specific Inhibitors of Vaccinia Orthopoxvirus: mCherry Reporter Primary qHTS | AID 720579, 2013 | 0.63% of 310,000 active | Potency, µM (highest dose often 36.5 µM), without a hit: at the top dose activity change, negative = inhibition, usual class: inhibitors | Vaccinia virus mCherry reporter infection, fluorescence; about a quarter of the inactives have no number; active = well fitted inhibition curve with a large enough effect; inconclusive = small, poorly fitted or top-dose-only effect; inactive = no such curve, though single readings can be large or run the other way; tested in A549 cells; also: nearly all actives have a fitted effect of over 35% in size; inactives centre near -10
An asterisk follows results filed as active; i = inactive; u = inconclusive; x = not tested or not shown; & = joins results of further samples; [ ] = remark or other dose. % is scaled to controls: 0 for no effect and ±100 for the full control effect; potency is read from the fitted curve at half-maximal effect.

structure,Vaccinia Venus,VACV mCherry inh
COc1ccc(NC(=O)c2c(C)oc3c2CCCC3)cc1,-11.1%,-11.5%
Cc1ccccc1C(=O)O/N=C(\c1ccccc1)c1ccccn1,-29.5%,-17.0%
Cc1cccc(N(CC(=O)NC2CCCC2)C(=O)CS(=O)CC(=O)Nc2ccc3c(c2)OCO3)c1C (stereo not drawn),-17.9%,-21.7%
COc1ccc(CNC(=O)CN(c2cc(C)cc(C)c2)S(=O)(=O)c2c(C)[nH]c(=O)[nH]c2=O)cc1,-13.8%&3.7%,-12.8%
O=C(c1ccc(F)cc1)N1CCN(Cc2ccccc2)CC1,-12.7%,-16.9%
CCOc1ccc(N2C(=O)Nc3ccccc3C2(O)C(=O)NCc2ccc(OC)cc2)cc1 (stereo not drawn),-8.3%,-1.5%
CCN(CC(=O)Nc1ccc(OC)cc1)CC(=O)Nc1ccc(Cl)cc1F,-2.2%,-11.0%
NC(c1csc(Nc2ccc(C(=O)NCCCO)cn2)n1)C1CCCCC1 (stereo not drawn),4.1%,7.6%
Cc1nn(CC(=O)N2CCN(c3ccc(Cl)cc3)CC2)c(=O)c2cccn12,-27.2%&-13.4%,-14.5%
Cn1ccnc1C(=O)c1ccc(NN)c([N+](=O)[O-])c1,-1.9%,-11.1%
Cc1cccc(NC(=O)c2c(NC(=O)c3ccccc3)sc3c2CCC3)c1,8.6%,0.5%
COc1cc(/C=C/C(=O)OCC(=O)Nc2ccc3[nH]c(=O)[nH]c3c2)ccc1OC(F)F,-1.3%,i

(cont.)
structure,Vaccinia Venus,VACV mCherry inh
Cc1cccc(N2CCN(S(=O)(=O)c3c(C)[nH]c(=O)[nH]c3=O)CC2)c1C,-11.3%&-18.5%,-4.4%
CCOc1ccccc1N(C)C(=O)Cn1ncc2c([nH]c3ccccc32)c1=O,-6.6%,-12.7%
COC(=O)[C@]12CCCCC=C1N(Cc1ccccc1)C(=O)[C@H](CC(=O)NCc1ccccc1)C2,-18.4%,-10.7%
O=C(Oc1cc(=O)oc2c1c(=O)n1c3c(cccc23)CC1)c1ccc(F)cc1,-21.4%,-14.1%
OC[C@@H]1CN(Cc2ccccc2)C[C@H](n2cnc3c(NC4CC4)ncnc32)O1,-11.6%,48.8%[activator]
OCCCn1c(C2CCCN2c2nc(-c3ccc(F)cc3)cs2)nc2cc(Cl)c(N3CCCCC3)cc21 (stereo not drawn),u,-21.0%
O=C(COc1ccc(F)cc1)N1CCCCCCC1,-0.9%,i
CCCNC(=O)COC(=O)c1ccc(S(=O)(=O)N2CCCCCC2)cc1,2.3%,-10.1%
O=C(Nc1ccc(N2CCOCC2)cc1)c1c(F)cccc1Cl,-1.6%,2.7%
O=C(CCCCn1ccc(=O)[nH]c1=O)Nc1ccc(O)c(C(=O)O)c1,-2.1%,i
O=C(N/N=C/c1cccnc1)c1cc(C2CC2)nc2ccccc12,-8.4%,17.2%
CC(C)(C)C(=O)N(Cc1ccccc1)c1ccccn1,u,i

Next results.
structure,Vaccinia Venus,VACV mCherry inh
Cc1cc(C(=O)CSc2n[nH]c(-c3ccccc3F)n2)c(C)n1Cc1cccs1,-30.6%,x
C[C@@H](C(=O)NCc1ccc(S(C)(=O)=O)cc1)[C@@H]1C[C@@]1(C)[C@@H](NC(=O)OCc1ccccc1)c1ccccc1,1.0%,i
CCOC(=O)N1CCC(=NNc2ccc(S(=O)(=O)N3CCOCC3)cc2[N+](=O)[O-])CC1,-9.7%,i
O=C(COc1ccc(/C=N/NC(=O)c2cccnc2)cc1)Nc1ccccc1,0.7%,i
Cc1ccc(C)c(N2CCN(CCCNc3ncnc4onc(-c5ccc(Cl)cc5)c34)CC2)c1,-17.3%,i
CC(NC(=O)c1ccccc1Cl)C1CC2CCC1C2 (stereo not drawn),-4.7%,2.1%
Cc1oc(-c2ccccc2NC(=O)c2ccccc2)nc1CNC(=O)c1c(-c2ccccc2)noc1C,-16.2%,-18.7%
NC(=O)C1CCCN(C(=O)CCc2nnc(C3(c4ccc(Cl)cc4)CCC3)o2)C1 (stereo not drawn),-12.6%,i
CCc1cc(C(=O)Nc2cc(Cl)ccc2N2CCN(C)CC2)sc1C,-12.2%,-0.2%
CCC(C)NC(=O)C1CCCN(S(=O)(=O)c2ccc3c(c2)CC(C)N3C(C)=O)C1 (stereo not drawn),-29.4%,-1.7%
COc1ccccc1-c1csc(C(O)(c2ccccc2)C(F)(F)F)n1 (stereo not drawn),-9.1%,-12.8%
Cc1c(C(=O)NCC2(N3CCCCC3)CCCC2)cnn1-c1nccc(-c2ccccc2F)n1,34.9%[activator],12.1%

Reformatted with two lines to a compound: 2 of the compounds above
Results follow in this order: Vaccinia Venus	VACV mCherry inh
> NC(=O)C1CCCN(C(=O)CCc2nnc(C3(c4ccc(Cl)cc4)CCC3)o2)C1 (stereo not drawn)
→ -12.6%	i
> CCc1cc(C(=O)Nc2cc(Cl)ccc2N2CCN(C)CC2)sc1C
→ -12.2%	-0.2%

The list continues.
structure,Vaccinia Venus,VACV mCherry inh
COc1ccccc1-n1nnnc1SCC(=O)NCC1CCCO1 (stereo not drawn),-20.0%,-21.3%
O=C(CNC(=O)c1cccc(F)c1)N/N=C/c1ccc(O)c([N+](=O)[O-])c1,-9.6%,-17.5%
O[C@H]1COC2C1OC[C@@H]2O (stereo partly drawn),-14.5%,i
COc1cccc(CN(C)C(=O)c2[nH]c(C)c(C(C)=O)c2C)c1OC,-16.8%,-4.1%
COC(=O)c1ccc(NC(=O)COc2ccc(S(=O)(=O)NC(C)(C)C)cc2)cc1,-3.4%,-7.2%
O=c1oc2cc(OCc3ccc(C(F)(F)F)cc3)ccc2cc1-c1ccccn1,-8.8%,-6.5%
Cc1cc(C)n(C(=O)CNC(=O)c2ccco2)n1,-10.6%,-2.7%
CC(=O)c1ccc(-c2ccc([C@H]3[C@H]4C=CC[C@@H](C)[C@@H]4C(=O)N3Cc3ccccc3)c(F)c2)cc1,5.3%,i
Cc1ccc(OCC(=O)Nc2ccc(N3CCCC3)cc2)cc1C,-16.9%,-17.1%
CCOC(=O)N1CCN(C2CCCN(C(=O)c3cccc(Cl)c3)C2)CC1 (stereo not drawn),-13.4%,-18.5%
COc1ccc(CN2CCN(C(=O)Cc3ccccc3)CC2)c(OC)c1,-16.6%,i
Cn1c(N)c(C(=O)CSc2nc3ccccc3c(=O)n2Cc2ccccc2)c(=O)n(C)c1=O,-9.5%,-26.4%

Next entries:
structure | Vaccinia Venus | VACV mCherry inh
O=C(c1ccncc1)N1N=C(C2CC2)CC1(O)C(F)(F)F (stereo not drawn) | -7.3% | -4.5%
COc1ccc(NC(=O)c2[nH]nc3c2CSc2ccccc2-3)c(OC)c1 | -9.0% | -8.9%
COc1cc([N+](=O)[O-])ccc1-c1ccc(C(=O)Nc2ccc(NC(C)=O)cc2)o1 | -4.5% | -9.2%
c1ccc(-c2cc3c(N4CCCCC4)ncnc3s2)cc1 | -5.1% | -7.1%
Nc1ncnc2c1ncn2[C@@H]1O[C@H](CNCc2cn(CC(=O)NC3CC3)c3ccccc23)[C@@H](O)[C@H]1O | -4.8% | i
Cc1cccc(C)c1NC(=O)c1c[nH]c2ccccc12 | -2.7% | i
Cc1cc(C(=O)OC(C)C(=O)N2CCc3ccccc32)ccc1[N+](=O)[O-] (stereo not drawn) | -15.9% | -17.7%
Cn1c(=O)c2c(nc(N/N=C/c3cccnc3)n2Cc2ccccc2)n(C)c1=O | -12.7% | -4.6%
CC(C)C[C@@H](CNCC(=O)[C@H](Cc1c[nH]c2ccccc12)NC(=O)c1[nH]cnc1C(=O)N[C@@H](C)CN)NC(=O)c1nc[nH]c1C(=O)N[C@@H](Cc1ccccc1)C(=O)O | -0.7% | i
O=C(CC1C(=O)NCCN1C(=O)c1ccccc1)Nc1cc(Cl)ccc1Cl (stereo not drawn) | -8.4% | -2.6%

Going on with the list.
structure | Vaccinia Venus | VACV mCherry inh
CCCOc1cccc(C(=O)Nc2cccc(NC(=O)c3ccco3)c2)c1 | -12.8% | -30.6%
CCOc1ccc(CCN2C(=S)N([C@@H](CC(C)C)CN3CCCC3CN3C(=S)NC[C@@H]3CC(C)C)C[C@@H]2Cc2ccc(O)cc2)cc1 (stereo partly drawn) | u | u
CCc1cccc(CC)c1NC(=O)c1cc(S(=O)(=O)N2CCc3ccccc32)cn1C | -17.8% | -16.0%
COc1cc(C(=O)NC(c2ccccc2)c2ccccc2)cc(OC)c1OC | -8.6% | i
COc1ccc(OCC(O)CN2C(=O)NC(C)(C)C2=O)cc1 (stereo not drawn) | -6.4% | -10.9%
Cc1cc2c(cc3c(=O)n(CC(=O)NCCCN4CC(C)CC(C)C4)ncn32)s1 (stereo not drawn) | 0.0% | -10.2%
COC(=O)C(Cc1c[nH]c2ccccc12)NC(C)=O (stereo not drawn) | -2.0% | x
CCOc1cc(C(=O)N2CC(=O)Nc3ccc(F)cc3C2c2ccccc2)cc(OCC)c1OCC (stereo not drawn) | -13.7% | -11.9%
Cc1ccccc1-c1noc(-c2cc(-c3ccc(F)cc3)n[nH]2)n1 | -5.9% | -9.9%
CCC(C)(C)C1CCc2c(sc(NC(=O)c3cccs3)c2C(N)=O)C1 (stereo not drawn) | -14.3% | -15.8%

Next part.
structure | Vaccinia Venus | VACV mCherry inh
CCOn1c(=O)c(=O)n(OCc2ccccc2)c2ccccc21 | -21.1% | x
Cc1cccc(CNC(=O)C2CCN(c3nnc(-n4c(C)ccc4C)s3)CC2)c1 | -8.7% | -8.5%
Cn1c(O)c(N=NC(=O)Cn2ccc(C(F)(F)F)n2)c2ccccc21 | -12.9% | i
Cc1csc(NC(=O)COc2ccc3c(c2)CCC3)n1 | -3.7% | 3.0%
Cc1ccc(C(c2sc3ncnn3c2O)N2CCC(C)CC2)cc1 (stereo not drawn) | -9.2% | 23.6%
COc1ccc(Cn2cc3c(-c4ccc(F)cc4)nnc-3c3cc(OC)c(OC)cc32)cc1 | u | -11.6%
COC(=O)/C=C/c1cnc2ccccc2c1 | -5.6% | -9.6%
CCCC(C)C1(CC)C(=O)NC(=Nc2ccc(F)cc2)NC1=O (stereo not drawn) | u | x
COC(=O)c1cn(NC(=O)c2ccc(OC)c(OC)c2)c(=O)c2ccccc12 | -8.9% | -10.4%
CCC(=O)Nc1nc2c(OC)ccc(C)c2s1 | -17.4% | u

Two compounds picked at random from the list so far:
structure | Vaccinia Venus | VACV mCherry inh
Cn1c(O)c(N=NC(=O)Cn2ccc(C(F)(F)F)n2)c2ccccc21 | -12.9% | i
COc1ccc(Cn2cc3c(-c4ccc(F)cc4)nnc-3c3cc(OC)c(OC)cc32)cc1 | u | -11.6%

Next compounds
structure | Vaccinia Venus | VACV mCherry inh
COc1ccc(-c2cnc(C(O)c3ccc(CN4CCCCC4)cc3)[nH]2)cc1 (stereo not drawn) | 3.7% | 7.8%
C=CCn1c(SCC(=O)NCC2CCCO2)nnc1C1CCCCC1 (stereo not drawn) | -8.2% | i
O=C1CN(C(=O)c2cc3ccccc3oc2=O)C(c2ccc(F)cc2)c2cc(F)ccc2N1 (stereo not drawn) | -9.7% | -14.6%
Cn1nc(C(=O)N2CCOCC2)c([N+](=O)[O-])c1C(=O)N1CCOCC1 | 11.8% | i
COc1ccc(NC(C)=O)cc1NC(=O)c1c(C)noc1C | -10.4% | -0.2%
COc1cccc(-n2c(SCC(=O)N3c4ccccc4CC3C)nnc2-c2ccco2)c1 (stereo not drawn) | -21.6% | x
CC(=O)Oc1ccc2ccccc2c1C(NC(=O)C(C)C)c1cccc([N+](=O)[O-])c1 (stereo not drawn) | u | u
O=C(NC1CCN(S(=O)(=O)c2ccc(F)cc2)CC1)c1cccnc1 | -20.7% | -23.9%
CC(C)c1ccc(N2C(=O)CC(NNC(=O)c3cccnc3)C2=O)cc1 (stereo not drawn) | -10.1% | i
CC1CC(C)CN(c2ccc([N+](=O)[O-])cc2-c2nn[nH]n2)C1 (stereo not drawn) | -7.3% | -10.1%

The listing continues.
structure | Vaccinia Venus | VACV mCherry inh
CCOC(=O)C1=CCN(S(=O)(=O)c2ccccc2C)C1c1ccc(F)cc1 (stereo not drawn) | -4.7% | 10.7%
COc1cccc(CNC(=O)c2ccc(-c3nc(CS(=O)c4ccccc4)c(C)o3)cc2)c1 (stereo not drawn) | -12.6% | -21.3%
COc1ccc2nc(NC(=O)C3CCN(S(=O)(=O)c4cccnc4)CC3)sc2c1 | u | u
N#CCCN=C(NS(=O)(=O)c1ccccc1)c1ccccc1 | -0.9% | i
CCOC(=O)[C@]12CCCC=C1N(Cc1cccc3ccccc13)C(=O)[C@H](CC(=O)NCC1CCCCC1)C2 | -25.2% | i
O=C1NC[C@H](c2ccccc2)N(CC2CCCCC2)C1=O | -1.3% | i
CCOc1ccc(-c2cc(OC(=O)c3ccccc3)c3c(C)oc(C)c3c(=O)c2)cc1 | 30.3%[activator] | -9.6%
COc1ccccc1CNC(=O)C(=O)NCC(c1cccs1)S(=O)(=O)c1ccccc1 (stereo not drawn) | -12.7% | -15.1%
O=c1c2ccccc2nc2n1CCC2O (stereo not drawn) | -4.5% | -14.5%
Cn1c(SCC(=O)Nc2nnc(-c3ccccc3)o2)nnc1C1CC1 | -12.7% | -10.6%

Further records follow.
structure | Vaccinia Venus | VACV mCherry inh
COC(C)c1oc2c(C)c3oc(=O)cc(C)c3cc2c1C (stereo not drawn) | -7.5% | -17.9%
CCOC(=O)C(CC)n1cnc2sc3c(c2c1=O)CCC3 (stereo not drawn) | -13.2% | x
Cc1nc(C)c(CCNC(=O)c2cccc(Cl)c2)s1 | -7.4% | -10.3%
C=CCOc1nc2c(c(=O)n(C)c(=O)n2C)n1Cc1ccccc1 | -13.8% | 0.7%
O=C(COc1ccc(Cl)cc1Cl)NCCCN1CCOCC1 | 2.8% | -16.7%
